Source: PubChem (National Center for Advancing Translational Sciences (NCATS))
NS1 function inh = inhibitors of influenza NS1 protein function. S. cerevisiae slowed by influenza A NS1, growth recovery by OD600. AID 2326. 270,000 tested, 0.4% active. Potency, µM (highest dose often 46.1 µM), without a hit: at the highest dose activity, positive = more growth; active means well fitted rising curve with a large enough effect; inconclusive means small, poorly fitted or top-dose-only effect; inactive means no such curve, though single readings can be large or run the other way; note: nearly all actives have a fitted effect of over 50% in size
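Growth recovery, yeast-based: influenza A NS1 expressed in S. cerevisiae causes slow growth, and suppressors are detected by OD600. The parent strain without NS1 is used as positive control.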
Lassa entry inh = Lassa virus entry inhibition. Lassa virus pseudotype entry inhibition, cell reporter; control for the full effect not named in the record. Potency, µM (titrated, usually from 37.9 µM), without a hit: at the highest dose activity change, negative = inhibition, hits mostly inhibitors. 300,000 tested, 1.2% active; active means well fitted inhibition curve with a large enough effect; inconclusive means small, poorly fitted or top-dose-only effect, or effect the other way; inactive means flat fitted curve, though single readings scatter; tested in HEK293 cells; note: % is set by controls: 0 for no effect and ±100 for the full control effect; nearly all actives have a fitted effect of over 50% in size; luciferase read-out
Marburg entry inh = Marburg virus entry inhibition; Potency, µM (titrated, usually from 37.8 µM), inactives show top-dose activity change, negative = inhibition, actives largely listed as inhibitors; AID 540276; Marburg virus pseudotyped entry inhibition, cell reporter; control for the full effect not named in the record; about a third of the inactives were read at about 46 µM; 300,000 tested, 1.8% active; active = well fitted inhibition curve with a large enough effect; inconclusive = small, poorly fitted or top-dose-only effect, or effect the other way; inactive = flat fitted curve, though single readings scatter; tested in HEK293 cells; about a fifth of its hits are not listed in these tables; note: % is set by controls: 0 for no effect and ±100 for the full control effect; luciferase read-out
SARS PLpro yeast = blocks SARS-CoV papain-like protease in a yeast assay; S. cerevisiae expressing SARS-CoV PLpro, growth rescue; control for the full effect not named in the record; Potency, µM (top dose mostly 32.9 µM), without a hit: top-dose activity, positive = growth rescue; 330,000 tested, 0.19% active; AID 485353; active means well fitted rising curve with a large enough effect; inconclusive means small, poorly fitted or top-dose-only effect; inactive means no such curve, though single readings can be large or run the other way; note: 0% is about no effect; nearly all actives have a fitted effect of over 55% in size; growth read by luminescence after 48 h
Cruzain noTriton = blocks cruzain activity in detergent-free assay; purified cruzain, Z-FR-AMC fluorescence, no detergent; Potency, µM, without a hit: max response, negative = inhibition, actives largely listed as inhibitors; 200,000 tested, 2.3% active; AID 1476;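 note: plate controls were enzyme without inhibitor for no effect and buffer without enzyme for full effect; nearly all actives have a fitted effect of over 40% in size; top concentration of the series not given in the record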
Target sequence (P25779 123-467 limits assumed): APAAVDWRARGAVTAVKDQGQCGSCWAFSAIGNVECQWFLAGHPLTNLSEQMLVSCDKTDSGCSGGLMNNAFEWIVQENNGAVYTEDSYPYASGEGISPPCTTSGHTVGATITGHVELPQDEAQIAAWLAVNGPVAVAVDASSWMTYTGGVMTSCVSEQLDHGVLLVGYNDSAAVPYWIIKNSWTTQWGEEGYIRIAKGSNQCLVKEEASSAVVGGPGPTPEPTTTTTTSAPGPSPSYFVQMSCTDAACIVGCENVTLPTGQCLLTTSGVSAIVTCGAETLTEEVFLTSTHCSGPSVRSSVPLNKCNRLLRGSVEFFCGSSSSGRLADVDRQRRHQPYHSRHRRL
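Detergent-free condition (0.00005% Triton X-100) in acetate buffer pH 5.5 with DTT. 1.5 nM enzyme and compound were pre-mixed 15 min, then 2 uM Z-FR-AMC substrate added; reaction progress from fluorescence change between first and third reads (60 s).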
StopGo reporter = FMDV 2A StopGo reporter, luciferase signal | human cells with a luciferase reporter of 2A StopGo recoding; control for the full effect not named in the record | Potency, µM (titrated, usually from 57.9 µM), inactives show at the top dose signal change, negative = less light | 410,000 tested, 1.2% active; active = well fitted falling curve with a large enough effect; inconclusive = small, poorly fitted or top-dose-only effect; inactive = no such curve, though single readings can be large or run the other way; tested in HEK293T cells; note: % is set by controls: 0 for no effect and ±100 for the full control effect; nearly all actives have a fitted effect of over 45% in size; luciferase light after 4 h
Cruzain Triton = blocks cruzain activity in presence of Triton detergent; P25779; purified cruzain, Z-FR-AMC fluorescence, 0.01% Triton; Potency, µM, for the others: max response, negative = inhibition, most hits filed as inhibitors; 200,000 tested, 0.43% active;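 note: plate controls were neutral wells for no effect and buffer without enzyme for full effect; nearly all actives have a fitted effect of over 40% in size; top concentration of the series not given in the record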
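Cysteine protease activity tested under reducing, mildly acidic conditions (100 mM sodium acetate pH 5.5, 5 mM DTT) plus 0.01% Triton X-100. Cruzain 1.5 nM; substrate Z-FR-AMC 2 uM; 15 min compound preincubation at room temperature.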
RE007 growth inh = less growth of the S. pombe RE007 Vpr strain | S. pombe RE007 Vpr strain, BacTiter-Glo ATP luminescence, 24 h; control for the full effect not named in the record | Potency, µM (doses to about 92.2 µM), for the others: top-dose activity change, negative = less growth | 360,000 tested, 0.21% active; active = well fitted falling curve with a large enough effect; inconclusive = small, poorly fitted or top-dose-only effect; inactive = no such curve, though single readings can be large or run the other way;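 note: % is set by controls: 0 for no effect and ±100 for the full control effect; nearly all actives have a fitted effect of over 50% in size; the assay follows cell death caused by Vpr and the record does not say whether a fall means rescue or toxicity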
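Fission yeast RE007 carrying one integrated HIV-1 vpr copy, seeded at OD 0.01 in PMG+AL medium with 23 nL pinned compound. Grown 24 h at 30 degrees; viability read by BacTiter-Glo luminescence after 5 min.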
* hit, by the source's call; ? = inconclusive; / = no result given; & = joins results of further samples; [ ] = dose if it differs, or a comment. Unless noted, calls come from the whole dose curve; as a rule, active = well fitted curve in the direction sought with a large enough effect; inconclusive = small, poorly fitted or top-dose-only effect, or another doubt; inactive = no such curve, though single readings can be large; an effect the other way counts as inactive or inconclusive. Potency is the fitted concentration of half-maximal effect.

SMILES | NS1 function inh | Lassa entry inh | Marburg entry inh | SARS PLpro yeast | Cruzain noTriton | StopGo reporter | Cruzain Triton | RE007 growth inh
CC(C)(C)SCCNS(=O)(=O)c1ccc2ccccc2c1 | -11% | 1% | 17% | -25% | 5% | 63%[activator] | -6.6% | 3%
CC(C)n1c(-c2cccs2)nc2ccccc21 | -18% | 2% | -3% | 6% | -18% | -4% | -1.6% | 11%
COC(=O)c1[nH]c2cc(OC)ccc2c1NC(=O)CCN1CCCCC1 | 12% | 0% | 3%[46.1 µM] | 4% | 9% | -14% | -1.6% | 9%
COC(=O)c1sc2ncn(N)c(=O)c2c1C | -4% | / | / | 0% | / | -9% | / | 2%
CCCc1n[nH]c2c1C(=O)C(C(=O)OC)C(C)(C)C2 (stereo not given) | -11% | -16% | 3% | 8% | -3% | -11% | 7.3% | 3%
CSc1nnc2n(C3CCCCC3)c(=O)c3c4c(sc3n12)CCCC4 | 1% | / | -2% | 0% | 4% | / | 3.6% | /
Cc1cc(NCc2ccccc2Cl)n2cnnc2n1 | / | -10%[46.1 µM] | -3%[46.1 µM] | / | 4% | ? | -4.6% | /
O=C(NCCc1c[nH]c2ccccc12)C(=O)NCC1OCCN1S(=O)(=O)c1ccc(F)cc1 (stereo not given) | -8% | ? | -15% | -2% | -22% | -2% | -5.8% | 4%
Cc1ccc(-c2cc(-c3ccccc3)nc(NN)n2)cc1 | 21% | -24%[46.1 µM] | ? | -8% | / | -10% | / | 2%
N#Cc1nccnc1S(=O)(=O)c1cccs1 | -68% | 1% | -35% | -6% | / | ? | / | -10%
COc1ccccc1-c1noc(-c2ccc(NCCc3ccccc3)c([N+](=O)[O-])c2)n1 | / | 19%[46.1 µM] | 3%[46.1 µM] | / | 1% | 25% | -3.2% | /
COC(=O)c1ccc(-n2c(C)cc(C(=O)COC(=O)CNS(=O)(=O)c3ccc(C)cc3)c2C)cc1 | ? | -5% | -1% | 13% | -2% | -10% | -8.9% | 2%
COc1cccc(-c2cc(C(=O)Nc3cc(C)on3)no2)c1 | -10% | 7% | ? | -2% | -5% | 28% | 0.1% | 10%
COc1ccc(C(=O)Oc2coc(CSc3nnc(NC(=O)c4cccs4)s3)cc2=O)cc1 | 13% | ? | ? | 9% | ? | 9% | 1.1% | 4%
Cc1cccc(C)c1NC(=O)/C(C#N)=C/c1ccc(-c2ccc(C(=O)O)cc2)o1 | 14% | ? | ? | -2% | / | 38%[activator] | / | 0%
COc1ccc(C(=O)C2C(c3ccc(-c4ccccc4[N+](=O)[O-])o3)NC(=O)NC2(O)C(F)(F)F)cc1 (stereo not given) | -6% | -12% | ? | -9% | 4% | -22% | -9.7% | -19%
CCOC(=S)SCC(=O)N1CCc2cc(OC)ccc2C1C1C(=O)CCCC1=O (stereo not given) | 1% | / | / | 5% | 6% | -16% | -3.1% | -3%
COc1ccccc1NC(=O)CSc1nnc(-c2ccco2)n1N | 1% | / | / | -7% | / | -10% | / | -2%
N#CC1=C(S)N(c2ccccc2)C(c2ccc(-c3ccc(Cl)c(Cl)c3)o2)NC1=O (stereo not given) | -33% | / | / | -6% | / | -2% | / | -12%
CC(=O)c1cccc(NC(=O)CC(c2ccc(C)cc2)N2Cc3ccccc3C2=O)c1 (stereo not given) | / | -19%[46.1 µM] | / | / | -7% | 26% | -5.6% | /
CNC(=S)NNc1nncc2ccccc12 | 1% | 16% | -34%[46.1 µM] | -3% | / | 11% | / | 1%
Cc1cccc(C(=O)Nc2ccccc2OCc2cc(=O)n3ccccc3n2)c1 | / | 19%[46.1 µM] | / | / | -2% | -3% | 5.5% | /
CCCCC(=O)Nc1nc2c(OC)ccc(OC)c2s1 | 2% | / | / | 1% | -18% | -25% | 0.0% | -2%
O=C(CCCN1C(=O)/C(=C\c2cccs2)SC1=S)Nc1cc([N+](=O)[O-])ccc1O | 4% | -15% | 0% | 0% | / | ? | / | 2%
CS(=O)(=O)NN1C(=O)c2ccccc2NC12CCCC2 | -6% | 0%[46.1 µM] | 3%[46.1 µM] | 3% | / | -5% | / | -19%
O=C(CC1C(=O)NCCN1C(=O)Nc1ccccc1)Nc1cccc(Cl)c1 (stereo not given) | 2% | / | / | 0% | / | -11% | / | 5%
CC(C)(C)CN1CCNC(=O)C1CC(=O)NCCc1cnn(-c2ccccc2)c1 (stereo not given) | 8% | -1% | 0%[46.1 µM] | -2% | / | -1% | / | 2%
Cc1noc(C)c1COC(=O)CNC(=O)c1cccc(F)c1 | / | -1% | 6%[46.1 µM] | -1% | / | -9% | / | -13%
COc1ccc(-n2nc(C(=O)N3CCC(C)CC3)c3c4ccccc4n(C)c3c2=O)cc1Cl | / | 18%[46.1 µM] | 8%[46.1 µM] | / | 10% | -8% | 0.0% | /
Cc1c(Cl)cccc1NC(=O)CCn1c(=O)c2cccn2c2ccccc21 | / | -19%[46.1 µM] | / | / | 23% | 0% | -6.3% | /
COc1cc(CNC(=O)c2ccc3c(c2)N(C)C(=O)C2CCCCN32)cc(OC)c1OC (stereo not given) | / | ? | / | / | 6% | 1% | -3.0% | /
Cc1ccc(C(C(=O)NCc2ccccc2)N(C(=O)c2csnn2)c2cccc3ccccc23)o1 (stereo not given) | 25% | 6% | -13% | / | -11% | 1% | 2.5% | 30%
CC(C)c1ccccc1-n1c(-c2cccnc2)n[nH]c1=S | 4% | 19% | -3% | 1% | / | 5% | / | 8%
O=C(NC(=S)Nn1cnc2c(cnn2-c2ccccc2)c1=O)c1ccc(Cl)cc1 | -1% | 18% | 11%[46.1 µM] | 10% | 2% | 4% | -2.7% | -30%
O=C(COc1ccc2ccc(=O)oc2c1)Nc1ccc(CCO)cc1 | 2% | / | / | 7% | / | 3% | / | 5%
CCc1ccc(NC(=O)CCC(=O)Nc2nnc(C(F)(F)F)s2)cc1 | 5% | 10%[46.1 µM] | 2%[46.1 µM] | 1% | / | 15% | / | -2%
Cc1nc(N2CCN(Cc3ccc4c(c3)OCO4)CC2)c2oc3ccccc3c2n1 | -48% | -28% | ? | / | / | 28µM* | / | -7%
C=CCn1c(SCC(=O)Nc2cc(C)on2)nc2sc(CC)cc2c1=O | ? | -14% | 7%[46.1 µM] | 2% | -4% | 1% | 1.7% | 0%
COc1cccc2sc(N(Cc3cccnc3)C(=O)C3COc4ccccc4O3)nc12 (stereo not given) | / | -12%[46.1 µM] | / | / | 17% | -20% | 3.7% | /
CN(CC(=O)Nc1ccccc1C(F)(F)F)C(=O)Cc1ccc(S(=O)(=O)N2CCOCC2)s1 | / | -2% | 7% | 18% | / | -1% | / | -5%
COc1ccc(CCC(=O)Nc2ccc(S(=O)(=O)Nc3nccc(C)n3)cc2)cc1 | 25% | -4% | 15%[46.1 µM] | 2% | / | 11% | / | 13%
O=C(NCc1ccncc1)C1CCN(S(=O)(=O)Cc2ccccc2)CC1 | -7% | 15% | 6% | -9% | 9% | / | 7.0% | -2%
CCCN(CCC)CCCNC(=O)C1CCN(c2nc3ccc(CC)cc3s2)CC1 | / | 8%[46.1 µM] | 27%[46.1 µM] | / | -1% | 13% | -4.0% | /
O=C(C[n+]1cccc2ccccc21)c1ccc(Br)cc1 | 11% | / | / | -3% | / | -23% | / | 8%
C=C(Cl)COc1cc(C)cc2oc(=O)cc(CC)c12 | -9% | -8% | 3% | -2% | -11% | -27% | 6.1% | -5%
Cc1ccc(CSc2nc3ccccc3c(=O)[nH]2)cc1 | / | 2% | -2%[46.1 µM] | -5% | / | 30% | / | 20%
O=C(NP(=O)(N1CCCC1)N1CCCC1)C1=C(N2CCOCC2)/C(=C/c2cccc([N+](=O)[O-])c2)CC1 | / | 20% | 3%[46.1 µM] | 1% | / | -10% | / | -15%
CC(C)Cn1c(N)c(C(=O)CSc2ccccc2)c(=O)n(C)c1=O | 17% | 1% | ? | 9% | -2% | 20µM* | 2.9% | 3%
COc1ccc(OC)c(/C=C/C(=O)Oc2ccc(C(C)=O)cc2)c1 | -8% | 14% | 1%[46.1 µM] | -9% | / | 13% | / | 2%
O=C(CNC(=O)c1cccs1)OCc1ccc(Cl)cc1 | -9% | 23% | 12%[46.1 µM] | -2% | / | 1% | / | 6%
O=C(Nc1ccccc1Cl)N1CCC2(CC1)Oc1ccccc1C(=O)N2Cc1ccc(F)cc1 | / | 4%[46.1 µM] | -24%[46.1 µM] | / | -9% | ? | -5.2% | /
Cc1ccccc1NC(=O)CC1c2ccccc2CC(C)(C)N1C (stereo not given) | 2% | / | / | -2% | / | -15% | / | 0%
CCCNC(=O)COC(=O)c1[nH]c(C)c(C(=O)OCC)c1C | 0% | 2% | 20% | 6% | 30% | -4% | 0.3% | 0%
Cc1ccc(C)c(CSC2=NC(C)(C)Nc3ccccc32)c1 | / | ? | / | / | 0% | -18% | -6.9% | /
COc1ccc(CNC(=O)c2ccc(N3CCCC3=O)cc2)cc1 | -13% | 13% | ? | 0% | 1% | 63%[activator] | 3.6% | 16%
COCCNC(=O)c1cccc(OC2CCN(Cc3ccc(Cl)c(F)c3)CC2)c1 | -17% | 1% | -23% | 0% | / | ? | / | -1%
COc1ccc(NC(=S)NCCc2c(C)[nH]c3ccc(OC)cc23)cc1 | / | ? | 0%[46.1 µM] | 2% | / | 11% | / | 12%
O=C(CCN1C(=O)/C(=C/c2ccccc2F)SC1=S)N[C@@H](CO)Cc1ccccc1 | -12% | ? | ? | -3% | / | -18% | / | 6%
CC(C)COC(=O)c1cc(-c2ccc(/C=N/n3cnnc3)o2)ccc1Cl | 1% | 2% | -21% | 2% | -3% | 6% | -1.9% | -19%
CCn1cc(C(=O)NCCCN2CCC(C)CC2)c(=O)c2cc(S(=O)(=O)N(C)C3CCCCC3)ccc21 | -15% | ? | ? | 1% | 2% | 16%&22% | -0.8% | 9%
Cc1ccc(CNS(=O)(=O)c2cc3c(cc2Cl)NC(=O)CO3)o1 | / | -20%[46.1 µM] | / | / | -2% | -8% | 9.5% | /
CCOC(=O)c1cccc(NS(=O)(=O)c2c(C(=O)N3CCCCCC3)c(C)n(C)c2C)c1 | 4% | / | / | 12% | / | 13% | / | 15%
COc1ccccc1C(=O)Cc1ccccc1 | / | 21% | 22% | / | / | 23% | / | 22%
